PV pol inh – poliovirus RNA polymerase inhibition | poliovirus polymerase elongation, fluorescence polarization; stronger effect = lower value | AID 588519 | hit rate 0.66% among 150,000 | % elongation, % (compound at 16.7 µg/mL); in the data active = % elongation below about 90%; note: some results filed as inactive read as strong as hits
Target sequence (P03300 1749-2209 limits assumed): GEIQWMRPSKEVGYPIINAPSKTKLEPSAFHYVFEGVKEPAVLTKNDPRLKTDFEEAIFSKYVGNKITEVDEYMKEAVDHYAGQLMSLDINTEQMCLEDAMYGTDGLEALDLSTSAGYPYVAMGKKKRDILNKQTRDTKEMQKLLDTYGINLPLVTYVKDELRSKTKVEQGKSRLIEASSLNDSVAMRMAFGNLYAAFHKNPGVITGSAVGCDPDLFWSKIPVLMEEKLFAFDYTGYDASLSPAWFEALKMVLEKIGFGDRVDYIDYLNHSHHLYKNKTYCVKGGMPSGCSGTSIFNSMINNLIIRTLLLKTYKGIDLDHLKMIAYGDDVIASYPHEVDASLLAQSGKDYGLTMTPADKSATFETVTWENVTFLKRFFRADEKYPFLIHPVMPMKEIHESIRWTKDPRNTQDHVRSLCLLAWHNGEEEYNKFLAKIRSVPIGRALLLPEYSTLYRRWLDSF
PV pol inh intensity – further read-out of PV pol inh, marked with its call; % elongation; measured here: total intensity read-out; formula for this scale not given here;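 total fluorescence in place of polarization; lower means less elongation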
Active calls of the source: *.

mol	PV pol inh	PV pol inh intensity
COc1ccccc1NC(=O)Cn1c(=O)n(CC(=O)NCc2ccccc2Cl)c(=O)c2sccc21	102	100
CCN(C(=O)Cn1c(=O)nc(-c2ccccc2)c2cc(Cl)ccc21)c1cccc(C)c1	110	106
Cc1ccc2nc(Cl)c3cc(C(=O)NCCCN(C)Cc4ccccc4)sc3c2c1	98	99
CC(=O)Nc1ccc2nc(SCCOc3ccc(C)cc3)sc2c1	111	115
Cc1ccc(C(=O)NC2=NC(c3ccc(C)cc3)CC(=O)N2)cc1 (stereo not given)	99	94
COCCn1c(C)cc(O)c(C(c2ccc(OC)cc2)N2CCN(c3ccccc3)CC2)c1=O (stereo not given)	107	110
CC(NC(=O)c1ccc2c(c1)N(Cc1cccc(F)c1)C(=O)c1ccccc1S2)c1ccccc1 (stereo not given)	104	107
CCOc1ccccc1C1C(C(=O)N2CCCCC2)=C(C)Nc2nc3ccccc3n21 (stereo not given)	108	112
O=C(Nc1ccc2nn(-c3ccccc3)nc2c1)c1cc2ccccc2o1	110	115
COc1ccc(N2CC(C(=O)NCc3nnnn3-c3ccc(C)c(C)c3)CC2=O)cc1 (stereo not given)	105	116
COc1cc(CNc2ccc3[nH]c(=O)[nH]c3c2)cc(Br)c1OCc1ccccc1F	100	105
Cc1ccc(C)c(NC(=O)Nc2nnc(N(CC(C)C)CC(C)C)s2)c1	110	112
CCn1c(C)c(C)c2cc(C(=O)N3CCN(c4cccc(C)c4C)CC3)ccc21	118	117
Cc1ccc(-n2ncc3c(N(C)C)ncnc32)cc1Cl	107	109
Cc1ccc(S(=O)(=O)Nc2cc(Cl)c3oc4c(c3c2)C(=O)CC(C)(C)C4)cc1	101	105
CCc1ccc(Oc2c(C(F)(F)F)oc3c(CN4CCC(C)CC4)c(O)ccc3c2=O)cc1	108	108
O=C(Cc1ccccc1)N(Cc1cccnc1)c1nc2c(F)cccc2s1	107	109
Cc1ccc(NC(=O)c2c(Nc3ccccc3C)sc(C(=O)c3ccccc3)c2N)cc1	110	112
O=C(Nc1cc(Cl)cc(Cl)c1)c1ccc(F)c(S(=O)(=O)N2CCCCCC2)c1	123	129
COc1cc(C)ccc1OCCSc1nc2ccc(NC(=O)c3ccccc3F)cc2s1	109	102
CCc1ccc(S(=O)(=O)c2nnn3c2nc(N2CCC(C)CC2)c2cc(Cl)ccc23)cc1	110	100
COc1ccc(N2CCN(C(=O)c3cccc(-n4c(C)nc5cccnc54)c3)CC2)cc1	108	105
COc1ccc(-c2noc(CCC(=O)NCc3ccc(C)cc3)n2)cc1	118	116
COc1ccc(CCNC(=O)Cc2c(C)c3c(cc(C)c4c(C)c(C)oc43)oc2=O)cc1OC	108	110
COc1cccc(NC(=O)Cn2nnc(-c3nc(-c4ccccc4)no3)c2N)c1	105	96

Following part.
mol	PV pol inh	PV pol inh intensity
O=C(Nc1ccc2nn(-c3ccccc3)nc2c1)c1ccc(-c2cccc(Cl)c2)o1	112	106
COc1cccc(Nc2sc(C(=O)c3ccc(F)cc3)c(N)c2C(=O)NCc2ccc(Cl)cc2)c1	121	115
CCCCOc1ccc(CNC(=O)c2cnc3sc(N4CCC(C)CC4)nn3c2=O)cc1	106	93
CC1CCN(C(c2ccc(F)cc2)c2sc3nc(-c4ccco4)nn3c2O)CC1 (stereo not given)	109	109
O=C(Nc1cccc(-c2nc3ccccc3o2)c1)c1cccc(Br)c1	108	113
CCc1cccc(C)c1NC(=O)CSc1nc2ccncc2[nH]1	108	107
CCc1cccc(NC(=O)CNS(=O)(=O)c2ccc3nc(C)sc3c2)c1	107	111
CCOC(=O)Cn1c(=O)n(-c2ccccc2OC)c2nc(-c3ccccc3F)nc(C(N)=O)c21	108	107
COc1ccc(-c2cc(C(F)(F)F)n3nc(C(=O)Nc4sc5c(c4C(=O)OC(C)C)CCCC5)cc3n2)cc1OC	102	102
COc1cccc(NC(=O)Cn2c(=O)n(CCCC(=O)NCc3ccc4c(c3)OCO4)c(=O)c3ccccc32)c1	108	109
O=C(CN1C(=O)CCc2cc(S(=O)(=O)N3CCOCC3)ccc21)NCc1ccc(F)cc1	100	101
CCC(Sc1ncc(S(=O)(=O)c2ccc(Cl)cc2)c(=O)[nH]1)C(=O)Nc1ccc(OC)cc1 (stereo not given)	102	106
COc1ccc(S(=O)(=O)N(CC(=O)Nc2ccc(F)c(Cl)c2)c2ccc(C)cc2)cc1OC	105	107
CCc1nnc(SCc2cc(C)ccc2C)c2cc3sc(C)cc3n12	106	109
Cc1cc(C)c(S(=O)(=O)Nc2ccc3oc4c(c3c2)C(=O)CC(C)(C)C4)cc1C	106	104
Cc1cccc(C)c1Nc1nn2c(=O)c3cc4c(cc3nc2s1)OCO4	108	108
Cc1cc(C)c(NC(=O)CN(C)S(=O)(=O)c2ccc3c(c2)CCC(=O)N3)c(C)c1	105	112
COc1ccc(S(=O)(=O)NCCc2sc(-c3cccnc3)nc2C)cc1	100	111
COc1cccc(C(=O)Nc2cccc(C(=O)OCc3cc(=O)n4c5c(sc4n3)CCCC5)c2)c1	104	112
COc1ccc(OCC2c3cc(OC)c(OC)cc3CCN2C(=O)c2c(F)cccc2F)cc1 (stereo not given)	107	94
CCS(=O)(=O)N1CC(=O)N(c2ccccc2C)C(C)(C(=O)NC2CCCCC2)C1 (stereo not given)	100	99
O=C(CN1C(=O)CCn2nc(-c3ccccc3)cc21)NCc1ccc(Cl)cc1	98	109
O=C(Cn1c(=O)oc2cc(S(=O)(=O)NCc3ccccc3)ccc21)Nc1cccc(F)c1	102	107
Cc1ccc(NC(=O)CN2C(=O)CC(c3ccco3)Sc3ccccc32)cc1Cl (stereo not given)	107	111
Cc1c(Cl)cccc1NC(=O)Cn1cc(C(=O)c2cccs2)c2ccccc21	102	99

Some of these compounds in order of SMILES length, largest number first:
mol	PV pol inh	PV pol inh intensity
CC1CCN(C(c2ccc(F)cc2)c2sc3nc(-c4ccco4)nn3c2O)CC1 (stereo not given)	109	109
Cc1c(Cl)cccc1NC(=O)Cn1cc(C(=O)c2cccs2)c2ccccc21	102	99
CCc1cccc(C)c1NC(=O)CSc1nc2ccncc2[nH]1	108	107

Three compounds drawn at random from those above, as already listed:
mol	PV pol inh	PV pol inh intensity
O=C(Cc1ccccc1)N(Cc1cccnc1)c1nc2c(F)cccc2s1	107	109
COc1ccc(-c2cc(C(F)(F)F)n3nc(C(=O)Nc4sc5c(c4C(=O)OC(C)C)CCCC5)cc3n2)cc1OC	102	102
COc1ccc(S(=O)(=O)NCCc2sc(-c3cccnc3)nc2C)cc1	100	111

Next part
mol	PV pol inh	PV pol inh intensity
CCOC(=O)c1cc2c(=O)n3ccccc3nc2n(C)c1=NC(=O)c1c(-c2c(F)cccc2Cl)noc1C	101	100
COc1cccc(CNC(=O)c2oc3c(c2C)-c2nn(Cc4cccc(Cl)c4)cc2CC3)c1	100	105
Cc1cccc(NC(c2cccc(Cl)c2)c2ccc3cccnc3c2O)n1 (stereo not given)	123	145
COc1ccc(Cl)cc1NC(=O)c1cc(=O)c2cc(C)cc(C)c2o1	112	113
Cc1cccc(-n2ncc3c(NNC(=O)c4ccccc4Cl)ncnc32)c1	105	113
CSc1nc2sc3c(c2c(=O)n1-c1ccc(C)cc1)CCCC3	106	108
CC1CCN(Cc2c(O)ccc3c(=O)c(-c4cccc(Cl)c4)c(C(F)(F)F)oc23)CC1	107	108
Cc1cccc(CSc2ncccc2C(=O)O)c1	114	114
COc1ccc(C2CC(=O)N(Cc3ccc(F)cc3)c3ccccc3S2)cc1OC (stereo not given)	110	112
Cc1ccc(CN(Cc2ccco2)C(=O)c2ccc(Cl)cc2Cl)cc1	107	111
COc1ccc2[nH]cc(CCNC(=O)Nc3ccccc3)c2c1	105	109
COc1ccccc1CN(Cc1ccco1)c1cnc(S(C)(=O)=O)nc1C(=O)Nc1cc(C)ccc1C	107	110
CCC(=O)N1CCc2cc(Br)cc(S(=O)(=O)CCC(=O)N3CCN(c4cccc(C)c4)C(C)C3)c21 (stereo not given)	106	110
COc1cc(-c2noc(-c3ccc(NC4CCCCC4)c([N+](=O)[O-])c3)n2)cc(OC)c1OC	110	119
CCN(CCCNC(=O)CN1N=C(c2ccccc2)CCC1=O)c1cccc(C)c1	110	112
O=C(Cn1nc(N2CCN(c3ccccc3)CC2)ccc1=O)NCc1cccc(Cl)c1	103	95
COc1ccc(Cl)c(Cn2c(NCCN)nc3c2c(=O)n(C)c(=O)n3C)c1	108	112
CC(=O)Nc1ccc(Nc2ncnc3c2c(-c2ccccc2)cn3-c2ccccc2)cc1	102	103
COc1cccc(NC(=O)c2sc(-n3nc(C)c(Cc4ccccc4Cl)c3C)nc2C)c1	111	108
CCOC(=O)c1c(C)[nH]c(C)c1S(=O)(=O)NCC(=O)NCc1cccc(Br)c1	114	113
COc1ccc(C(=O)Nc2ccc3nc(SCC(=O)N4CCCc5ccccc54)sc3c2)cc1	99	95
Cc1cc(N2CCC(C(=O)Nc3ccc(F)cc3C)CC2)n2nc(C)c(-c3ccc(Cl)cc3)c2n1	109	113
Brc1csc(CN2CCc3nc(Nc4ccccc4)ncc3C2)c1	107	108
Cc1ccc(CN2CCN(C3CCN(C(=O)c4ccc(C)cc4)CC3)C(=O)C2=O)cc1	104	102
CCn1c(C(=O)Nc2cc(C)cc(C)c2)cc2sc(Cl)cc21	105	105

3 of the compounds above, as labelled records:
Molecule: COc1ccc(C(=O)Nc2ccc3nc(SCC(=O)N4CCCc5ccccc54)sc3c2)cc1
- PV pol inh = 99
- PV pol inh intensity = 95

Molecule: COc1ccc2[nH]cc(CCNC(=O)Nc3ccccc3)c2c1
- PV pol inh = 105
- PV pol inh intensity = 109

Molecule: Cc1cccc(CSc2ncccc2C(=O)O)c1
- PV pol inh = 114
- PV pol inh intensity = 114

Additional entries
mol	PV pol inh	PV pol inh intensity
CC(C)c1ccc(Nc2cc(C(=O)NC3CCCCC3)c3ccccc3n2)cc1	103	105
CCCn1c2ccccc2c2cnn(CC(=O)NCCc3ccc(OCC)c(OCC)c3)c(=O)c21	107	113
COc1ccc(CCNC(=O)c2cn(C)c3ccc(S(=O)(=O)N4CCOCC4)cc3c2=O)cc1OC	104	104
COc1ccc2c(c1)cc1c(=O)n(CC(=O)NC3CCCCC3)nc(C)n12	105	110
CCOc1cc(CNC(=O)c2ccc3c(c2)N(C)C(=O)C2CCCCN32)ccc1OC (stereo not given)	104	107
O=c1c2oc3ccccc3c2n(Cc2ccccc2)c(=O)n1Cc1ccc2c(c1)OCO2	112	110
Cn1nnnc1SCCCNCc1cc(Br)ccc1OCc1ccccc1	106	110
CCOC(=O)CN1C(C(=O)c2ccccc2)=C(OC(=O)C(C)(C)C)c2ccccc2S1(=O)=O	107	108
CCC(=O)N1CCc2cc(S(=O)(=O)NCCC(=O)Nc3ccc(OC)c(Cl)c3)ccc21	105	107
Cc1ccc(-c2noc(-c3ccc(N4CCCCC4C)c([N+](=O)[O-])c3)n2)cc1 (stereo not given)	104	108
COc1ccc(CC(=O)NCC(c2ccc(N(C)C)cc2)N2CCOCC2)cc1 (stereo not given)	109	114
Cc1ccc(S(=O)(=O)c2cn(CC(=O)Nc3cccc(C)c3)c3cc4c(cc3c2=O)OCO4)cc1	109	108
O=C(Cn1c(=O)n(Cc2ccccc2)c(=O)c2sc3ccccc3c21)NCc1ccccc1Cl	104	100
CCn1c(=O)n(CC)c2cc(N3CCCCC3)c(NC(=O)Nc3cc(C)cc(C)c3)cc21	106	110
CCn1cc2nc(SCc3cccc(OC)c3)n(Cc3ccc(Cl)cc3)c(=O)c2n1	103	109
COc1ccc(-c2nc3c(c(SCC(=O)N4CCCCC4)n2)Cc2cc(Cl)ccc2O3)cc1	109	111
CCOc1ccc2c(c1)c(=O)c(S(=O)(=O)c1ccc(F)cc1)cn2CC(=O)Nc1ccccc1C	106	108
CCOCCCNC(=O)c1ccc(Cn2c(=O)c3cccn3c3cccnc32)cc1	109	109
CCOC(=O)c1c(S(=O)(=O)N2CCC(C(=O)N3CCN(c4ccccc4F)CC3)CC2)c(C)n(C)c1C	106	113
CCOc1ccc(CCNC(=O)c2cc3c(s2)-c2c(C)cccc2OC3)cc1	104	112
Cc1ccccc1-c1nc(CN2CCC(C(=O)NCc3ccc(F)cc3)CC2)c(C)o1	107	110
O=C(O)c1ccccc1NC(=O)N1c2ccccc2Sc2ccccc21	103	101
CCc1ccc(CNC(=O)c2ccc(-n3c(C)cc4c3CCC(C)C4)cc2)cc1 (stereo not given)	103	96
CC(C)CNc1nc(NC(C)(C)C)nc(Oc2ccc(=O)n(-c3ccccc3)n2)n1	110	110
COc1ccc2c(c1)CCc1sc(NC(=O)c3ccc(Cl)cc3)nc1-2	106	107

(listing goes on)
mol	PV pol inh	PV pol inh intensity
CCc1ccccc1NC(=O)Cn1nnc(C(=O)NCc2cccc(OC)c2)c1N	106	112
Cc1cccc(CS(=O)(=O)Cc2ccc(C(=O)NCc3ccc(F)cc3)o2)c1	113	112
Cc1cc(C)cc(NC(=O)CN2C(=O)CCc3cc(S(=O)(=O)N4CCCCC4)ccc32)c1	102	112
CCc1ccc(NC(=O)C(=O)NCC(c2ccc3c(c2)OCO3)N2CCN(C)CC2)cc1 (stereo not given)	102	104
Cc1cc2c(cc1NC(=O)c1ccc(C(C)(C)C)cc1)n(C)c(=O)c(=O)n2C	103	106
O=c1c(S(=O)(=O)c2ccccc2)cn(Cc2ccccc2)c2cc(N3CCCC3)c(F)cc12	111	105
CCn1cc(S(=O)(=O)c2cc(C)cc(C)c2)c(=O)c2cc(F)c(N3CCN(c4ccccc4)CC3)cc21	111	114
CCOc1ccc(NC(=O)NCc2cccn2Cc2ccccc2)cc1	99	109

Bioassay records from PubChem.

Only part of the results is shown; the hit share may differ from the screen's.
